Screens (PubChem)
CSC inhib – cancer stem cell viability inhibitors, primary screen, luminescence; cancer stem cell-like cells viability; inhibition, % at 7.5 µM; 300,000 compounds, 1.1% hits; AID 2717, 2010;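 active = mean at 75% or more and at least half the replicates too; tested in HMLE shEcad cells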;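 also: 0% = median of negative and 100% = median of positive control wells; the first replicate is given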
Env fusion inh – inhibitors of HIV-1 Env-driven cell-cell fusion, primary screen, HeLa-JRFL effector, CEM21 target cells, luciferase; inhibition, % at 12.3 µM; 360,000 compounds, 1.1% hits;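 active = mean replicate inhibition score of at least 50 and every replicate individually at or above 50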;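 also: 0% = plate neutral controls and 100% = maraviroc near 300 nM; one replicate is shown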
UUG fidelity – modulators of yeast start codon fidelity, primary screen, whole organism, S. cerevisiae, single point, plate reader; activity score, % at 18.7 µM; AID 602363, 2012; 350,000 compounds, 0.13% hits; S. cerevisiae UUG-firefly luciferase reporter, luminescence/redox ratio;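 active = replicate mean at a twofold rise or more, about +100% in these data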;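 also: firefly luciferase made from a UUG start codon reports start codon fidelity; reporter light over untreated wells divided by growth signal over untreated wells; some hits fall short of that in this replicate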
Rce1 inhib – yeast Rce1p protease inhibitors, primary screen, biochemical, fluorescence, cell-free homogeneous; CAAX prenyl protease 2 (Saccharomyces cerevisiae (strain ATCC 204508 / S288c)), Q03530; yeast membranes, quenched prenylated peptide cleavage fluorescence; calls only; 290,000 compounds, 0.27% hits; AID 2563, 2010;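 active = fall in fluorescence gain of 50% or more versus controls, with final raw signal at or below 3038400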;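 also: plate controls were neutral control wells for no effect and wells lacking membranes for full effect; tested at 10 µM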
Target sequence (Q03530 whole entry, looked up): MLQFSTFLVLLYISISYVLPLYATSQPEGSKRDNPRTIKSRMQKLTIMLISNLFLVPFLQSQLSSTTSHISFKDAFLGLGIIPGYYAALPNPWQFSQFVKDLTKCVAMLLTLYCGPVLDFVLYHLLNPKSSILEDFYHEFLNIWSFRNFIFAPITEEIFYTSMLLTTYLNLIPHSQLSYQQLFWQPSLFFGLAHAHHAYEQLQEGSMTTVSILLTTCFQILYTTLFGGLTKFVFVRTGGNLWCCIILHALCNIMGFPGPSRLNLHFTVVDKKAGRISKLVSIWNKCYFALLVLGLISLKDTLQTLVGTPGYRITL
MT1-MMP act inh – blockers of MT1-MMP proenzyme processing, primary screen, HT1080 RFP-PRO-GFP cells, GFP/RFP fluorescence; GFP/RFP ratio fluorescence, overnight; percent of plate control window, DMSO zero; GFP/RFP ratio change, % at 20 µM; 360,000 compounds, 0.061% hits;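 active = GFP/RFP ratio change of at least 30% with cell ATP level not reduced by more than half and red fluorescence within 50% of control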; also: strong numbers were not always called active
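Material: RFP-PRO-GFP reporter HT1080 cells. Dosing: single-point 20 µM compound, 1% DMSO. Controls: DMSO and RFP-L50D-GFP cell wells. Timing: cells overnight before dosing, compound overnight, 37 °C, 5% CO2. Measure: GFP/RFP fluorescence ratio.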
eIF4H inh – human eIF4H binding inhibitors, primary screen, translation initiation inhibitor project, biochemical, uHTS, fluorescence polarization; Eukaryotic translation initiation factor 4H (Homo sapiens), Q15056; eIF4H fluorescence polarization binding assay; 290,000 compounds, 0.94% hits; inhibition, % at 35 µM;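 active = 50% or more with normal probe brightness, or confirmed in later tests; about a fifth of its hits are not listed in these tables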;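 also: calls also rest on retests at 20 µM and on dose response follow-up; 0% = protein and probe with vehicle and 100% = probe without protein; strong numbers were not always called active; many hits fall short of the cut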
PABP polyA inh – PABP poly(A) RNA binding inhibitors, primary screen, biochemical, fluorescence polarization, uHTS. AID 2014, 2009. inhibition, % at 35 µM. 290,000 compounds, 1% hits. Polyadenylate-binding protein 1 (Homo sapiens), P11940;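 active = 50% or more with normal probe brightness, or confirmed in later tests; about a fifth of its hits are not listed in these tables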;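 also: calls also rest on retests at 20 µM and on dose response follow-up; controls were probe without protein and protein plus probe with vehicle; some compounds called inactive have numbers as strong as hits; many hits fall short of the cut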
Target sequence (P11940 whole entry, looked up): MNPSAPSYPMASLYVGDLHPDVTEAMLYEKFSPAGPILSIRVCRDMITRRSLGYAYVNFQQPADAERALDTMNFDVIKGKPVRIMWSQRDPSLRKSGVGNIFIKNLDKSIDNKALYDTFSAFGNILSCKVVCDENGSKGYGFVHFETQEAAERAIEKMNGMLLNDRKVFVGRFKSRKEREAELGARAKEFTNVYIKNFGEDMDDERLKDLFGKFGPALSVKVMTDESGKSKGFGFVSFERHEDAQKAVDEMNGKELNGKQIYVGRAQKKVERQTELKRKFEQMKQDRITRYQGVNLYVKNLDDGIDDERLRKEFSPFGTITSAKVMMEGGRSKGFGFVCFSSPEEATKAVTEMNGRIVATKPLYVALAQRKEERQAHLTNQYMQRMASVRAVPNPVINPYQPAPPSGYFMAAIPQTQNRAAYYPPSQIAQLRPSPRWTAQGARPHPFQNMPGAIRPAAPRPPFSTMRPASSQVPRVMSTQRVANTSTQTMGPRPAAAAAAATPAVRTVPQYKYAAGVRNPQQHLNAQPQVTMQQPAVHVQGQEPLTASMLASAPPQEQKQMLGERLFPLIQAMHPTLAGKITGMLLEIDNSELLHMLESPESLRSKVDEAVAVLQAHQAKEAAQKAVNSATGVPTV
eIF4H inh retest – further read-out of eIF4H inh, marked with its call; inhibition, %; compound at 20 µM; confirmation average;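 mean of two retest wells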
PABP polyA inh retest – further read-out of PABP polyA inh, marked with its call; inhibition, %; compound at 20 µM; confirmation repeats;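 mean of two retest wells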
MT1-MMP act inh RFP – also measured in MT1-MMP act inh; calls as there; RFP signal change, %; measured here: RFP expression control read;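 0 = vehicle wells; hits needed this value within 50% of zero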
Numbers without * were called inactive; i = inactive; . = not tested or not shown; & = joins results of further samples.

Start of the listing, in advance (2 entries):
SMILES	CSC inhib	Env fusion inh	UUG fidelity	Rce1 inhib	MT1-MMP act inh	MT1-MMP act inh RFP	eIF4H inh	PABP polyA inh	others
C=CCO/N=C/C1=C(O)C(C(=O)OC)C(C)(C)CC1=O (stereo unspecified)	10	-3	.	i	3	2	-1	13
N#CCC(=O)Nc1ccc(C(=O)OCC(=O)Nc2ccccc2-c2ccccc2)cc1	-1	0	.	i	0	1	13	-6

The list itself, from the start:
SMILES	CSC inhib	Env fusion inh	UUG fidelity	Rce1 inhib	MT1-MMP act inh	MT1-MMP act inh RFP	eIF4H inh	PABP polyA inh	others
C=CCO/N=C/C1=C(O)C(C(=O)OC)C(C)(C)CC1=O (stereo unspecified)	10	-3	.	i	3	2	-1	13
N#CCC(=O)Nc1ccc(C(=O)OCC(=O)Nc2ccccc2-c2ccccc2)cc1	-1	0	.	i	0	1	13	-6
Cc1ccc(C(=O)C2=C(O)C(=O)N(Cc3ccco3)C2c2cccc(Br)c2)o1 (stereo unspecified)	-1	-1	-15	i	-3	4	2	8
CN(C)c1cccc2c(S(=O)(=O)N3CCOCC3)cccc12	-9	.	-18	i	6	5	-1	7
O=C(CN1C(=O)NC2(CCCC2)C1=O)Nc1nc(-c2ccc(F)cc2)cs1	-7	-84	-2	i	7	-3	-1	-1
CC(=O)c1cc(Cc2csc(C(C)=O)c2)cs1	-6	.	-13	i	-1	-2	-3	9
O=C(c1ccccc1)N(Cc1ccccc1)c1ccccn1	3	-262	-6	i	0	2	7	0
CCOC(=O)C1CCN(C(=O)C(C)Sc2nnc3ccccn23)CC1 (stereo unspecified)	-7	7	-10	.	-3	1	.	.
O=C(CNC(=O)c1ccccc1F)OCCCOC(=O)CNC(=O)c1ccccc1F	-3	-1	.	i	1	7	.	.
CS(=O)(=O)Nc1ccc(C2=NN(C(=O)c3ccco3)C(c3ccc(F)cc3)C2)cc1 (stereo unspecified)	-22	-6	.	i	-1	-2	2	-7
CSC1=C(C#N)C(=O)NC(c2ccccc2O)S1 (stereo unspecified)	-3	-3	.	i	-3	0	1	3
COC(=O)C(Cc1cncn1COCc1ccccc1)NC(=O)OC(C)(C)C (stereo unspecified)	-7	-48	-25	i	-4	-3	-6	1
CC1CCc2nc(NC(=O)Cc3cccs3)sc2C1 (stereo unspecified)	1	.	-13	i	-2	-7	4	4
CCCCNC(=O)c1cc(-c2ccc3c(c2)OCO3)on1	55	-10	-20	i	4	4	4	-1
CCOc1ccc(NC(=O)CCNC(=O)c2ccco2)cc1	9	-1	-17	i	-1	5	0	13
Cc1ccc(CSCC(=O)N2CCCC2)cc1	12	11	1	i	-1	1	1	-7
O=C(CSc1nnc2ccc(-c3ccccn3)nn12)NCCc1ccccc1	9	.	-18	i	8	3	.	.
COCc1cc(C)[nH]c(=O)c1C#N	-11	.	-4	i	0	3	1	-4
COC(=O)c1cc(=O)c2c(C)nc(C(Cl)(Cl)Cl)nc2[nH]1	1	11	.	i	2	1	-11	12
COc1cccc(CN2CCN(Cc3ccc(C)o3)CC2CCO)c1 (stereo unspecified)	-10	-12	-9	i	0	-1	0	9
CC(OC(=O)CCc1nc2ccccc2c(=O)[nH]1)C(=O)Nc1cccc(C(F)(F)F)c1 (stereo unspecified)	.	-12	-22	.	-1	2	.	.
Cn1nc(-c2ccccc2)c(CO)c1Oc1cccc(C(F)(F)F)c1	.	2	.	i	4	-2	1	-12
OC1C[N+]2(CCCCC2)C1	-14	.	-16	i	0	1	2	13
CC1(C)CC(=O)C=C(NCCCN2CCCC2=O)C1	14	-16	-12	i	3	2	.	.
CCOC(=O)N1CCC(NC(=O)C(NS(=O)(=O)c2ccc3c(c2)CCN3C(C)=O)C(C)C)CC1 (stereo unspecified)	-11	.	1	i	-2	5	-12	-15
COc1ccc(-c2nc(N)nc(C(F)(F)F)c2-c2csc(C)n2)c(O)c1	-5	13	.	i	0	6	6	-8
CN(C)c1nc(-c2cccnc2)nc(-c2ccccc2)c1C#N	5	24	9	i	1	-1	-9	-6
CCOc1ccc(NC(=O)c2cccs2)c([N+](=O)[O-])c1	2	.	2	i	7	4	19	14
CCOC(=O)c1c(C)[nH]c(C(=O)COC(=O)/C=C/c2ccc3c(c2)OCO3)c1C	-6	-69	.	i	6	-1	-20	13
CCCSc1nsc(SCCC)c1C#N	.	.	-14	i	0	-2	4	-5
CCC(CO)NCc1ccc(-c2ccccc2)cc1 (stereo unspecified)	-31	11	1	i	1	3	2	12
Cn1c(SCC(=O)NNC(=O)c2ccccc2)nnc1C1CC1	-5	1	-9	i	-1	3	-21	-2
CCc1ccc(-c2csc3ncn(CC)c(=O)c23)cc1	-8	-1	-18	i	-5	-1	-9	-3
CCOC(=O)c1sc(=NC(=O)COc2ccc(Cl)cc2)n(C)c1C	-4	-39	.	i	-2	5	9	30
COc1ccccc1-c1cc(C(=O)N/N=C/c2ccc(C)o2)c2ccccc2n1	.	-32	-18	i	1	3	2	5
COc1ccccc1CNC(=O)COc1cccnc1[N+](=O)[O-]	-11	-4	-10	i	2	3	-6	-4
CCc1nc(C)c(C(=O)N2CCCC(C(=O)Nc3cccc(-c4cccc(C)c4)c3)C2)o1 (stereo unspecified)	14	26	-7	i	5	-10	-6	2
Cc1cccc(C)c1C(O)c1ncc(-c2cccc(F)c2)[nH]1 (stereo unspecified)	.	1	-34	.	-1	1	.	.
CCn1ncc(CN2CCN(C(=O)Nc3ccccc3C(=O)OC)CC2)c1C	0	11	-8	i	-5	0	8	3
CCOC(=O)c1sc2nc3c(SCCC(=O)O)cc(C(=O)c4cc(OC)ccc4O)cn3c(=O)c2c1C	.	72*	.	i	-14	6	81	-2	eIF4H inh retest=21;PABP polyA inh retest=47

Three structures out of the list, sorted by heavy-atom count, descending:
SMILES	CSC inhib	Env fusion inh	UUG fidelity	Rce1 inhib	MT1-MMP act inh	MT1-MMP act inh RFP	eIF4H inh	PABP polyA inh	others
CC(OC(=O)CCc1nc2ccccc2c(=O)[nH]1)C(=O)Nc1cccc(C(F)(F)F)c1 (stereo unspecified)	.	-12	-22	.	-1	2	.	.
CCOC(=O)c1c(C)[nH]c(C(=O)COC(=O)/C=C/c2ccc3c(c2)OCO3)c1C	-6	-69	.	i	6	-1	-20	13
CN(C)c1nc(-c2cccnc2)nc(-c2ccccc2)c1C#N	5	24	9	i	1	-1	-9	-6

3 compounds drawn at random from those above:
SMILES	CSC inhib	Env fusion inh	UUG fidelity	Rce1 inhib	MT1-MMP act inh	MT1-MMP act inh RFP	eIF4H inh	PABP polyA inh	others
O=C(CN1C(=O)NC2(CCCC2)C1=O)Nc1nc(-c2ccc(F)cc2)cs1	-7	-84	-2	i	7	-3	-1	-1
O=C(CNC(=O)c1ccccc1F)OCCCOC(=O)CNC(=O)c1ccccc1F	-3	-1	.	i	1	7	.	.
Cn1nc(-c2ccccc2)c(CO)c1Oc1cccc(C(F)(F)F)c1	.	2	.	i	4	-2	1	-12

(further entries)
SMILES	CSC inhib	Env fusion inh	UUG fidelity	Rce1 inhib	MT1-MMP act inh	MT1-MMP act inh RFP	eIF4H inh	PABP polyA inh	others
Nc1cc(N2CCCC2)ccc1[N+](=O)[O-]	-12	-18	.	i	-3	3	5	-3
O=C(Cn1cc(CCO)nn1)N1CCNCC1	-8	23	75	i	0	5	16	28
N#Cc1ccc(-c2ccc(OCC(=O)NCCc3ccccc3)cc2)cc1	-6	17	.	i	1	-8	-8	38
Cc1ccc(Sc2c([N+](=O)[O-])ncn2C)cc1	3	-21	-8	i	-3	-8	4	-7
O=C(Nc1ccc(Oc2ccccc2)nc1)C1CCCCN1Cc1cccc(OCCO)c1 (stereo unspecified)	-2	0	-22	i	-1	2	-8	0
COc1ccc(CS(=O)(=O)CC(C)(O)c2ccccc2)cc1 (stereo unspecified)	-12	-5	-8	i	1	-1	1	-7
c1ccc2[nH]c(-c3ccnc4ccccc34)nc2c1	-8&-12	-165	-10&-28	i	5&-5	6&-1	2&33	29&74	eIF4H inh retest=-4&-1;PABP polyA inh retest=7&29
Cc1ccc(C(=O)/C=C\NCc2ccccc2)cc1	-10	-7	.	i	2	4	2	9
O=C(CN1CCN(S(=O)(=O)c2ccccc2)CC1)Nc1ccccc1Cl	-11	5	-15	i	-4	-4	-12	-7
COc1ccc(/C=N/NC(=O)Cn2cc(C(F)(F)F)ccc2=O)cc1	-4	-5	.	i	-1	1	5	-4
CCOC(=O)CC1COCCN1C(=O)c1ccc2oc(Cc3ccccc3)nc2c1 (stereo unspecified)	-14	-23	-5	i	-2	-4	-14	-3
CN(C)CCN1CCN(C2CN(C3CCCC3)S(=O)(=O)C2)CC1 (stereo unspecified)	.	-52	-5	.	3	1	.	.
CSc1nnc(-c2cc(Br)ccc2N=Cc2c(C)[nH]n(-c3ccccc3)c2=O)c(=O)[nH]1	1	15	.	i	1	2	-4	26
COc1ccc2nc(C)cc(N/N=C/c3ccccc3)c2c1	97*	.	-2	.	1	2	.	.
COc1ccc2[nH]cc(CCNC(=O)Cn3cc(C)c(=O)[nH]c3=O)c2c1	.	-2	-14	.	4	9	.	.
Cc1nc(SCC(=O)Nc2cc(Cl)ccc2[N+](=O)[O-])nc(C)c1C	-3	9	-9	i	-4	-2	-5	-11
COc1ccc(S(=O)(=O)N2CCCCC2)cc1NC(=O)CCCNC(=O)c1ccc(Cl)cc1	.	9	-1	.	1	-1	.	.
COC(=O)c1ccc(COC(=O)CSCC(=O)Nc2ccc(C)cc2C)cc1	-16	19	-3	.	-2	-1	.	.
CCOC(=O)N1CCN(C(=O)CSc2ccc3nnc(-c4cccnc4)n3n2)CC1	-13	0	-4	i	-2	3	-5	-1
COc1cc2c(cc1OC)C(C)N(C(=S)NC(=O)c1ccccc1)CC2 (stereo unspecified)	-11	9	.	.	-2	-8	3	-9

Of the compounds above, these contain bromine.
SMILES	CSC inhib	Env fusion inh	UUG fidelity	Rce1 inhib	MT1-MMP act inh	MT1-MMP act inh RFP	eIF4H inh	PABP polyA inh	others
Cc1ccc(C(=O)C2=C(O)C(=O)N(Cc3ccco3)C2c2cccc(Br)c2)o1 (stereo unspecified)	-1	-1	-15	i	-3	4	2	8
CSc1nnc(-c2cc(Br)ccc2N=Cc2c(C)[nH]n(-c3ccccc3)c2=O)c(=O)[nH]1	1	15	.	i	1	2	-4	26

Remaining list, next part:
SMILES	CSC inhib	Env fusion inh	UUG fidelity	Rce1 inhib	MT1-MMP act inh	MT1-MMP act inh RFP	eIF4H inh	PABP polyA inh	others
CC(=O)Nc1nc(Cn2nnc(-c3ccc4c(c3)OCO4)n2)nc(N(C)C)n1	-8	10	-1	i	1	-1	5	-6
CN(Cc1ccccc1)c1nc2c(c(=O)[nH]c(=O)n2C)n1CCOc1ccccc1	-3	.	.	i	1	-1	-10	0
CCN(CC)CCNS(=O)(=O)c1ccc2[nH]cc(C(=O)O)c(=O)c2c1	-10	.	-24	i	0	3	44	1
COc1ccc(S(=O)(=O)N2CCN(Cc3cccc(OC)c3)CC2)cc1	-5	-4	-9	i	3	4	-16	11
